Bioassay records from PubChem.
Insulin prom inh = inhibitors of insulin promoter-driven GFP, primary screen, imaging, TRM-6 cells (human fetal islet line), eGFP reporter, cell count; AID 1273, 2008; inhibition, % at 2 µM; hit rate 0.9% among 130,000; reporter expression induced with tamoxifen;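 active means inhibition above the mean plus 3 SD, with well images judged a real hit on visual review, cut at about 60% in these data, passing the limit was not always enough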
PKD1 inh = inhibitors of human PKD1 kinase, biochemical, fluorescence polarization; inhibition, %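 (about 10 µM by stock and volumes)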; hit rate 0.056% among 200,000; PKD1 kinase fluorescence polarization assay;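 active means inhibition of 50% or more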;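 further: controls were vehicle for no effect and a reference inhibitor for full effect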
Target sequence (Q15139 whole entry, looked up): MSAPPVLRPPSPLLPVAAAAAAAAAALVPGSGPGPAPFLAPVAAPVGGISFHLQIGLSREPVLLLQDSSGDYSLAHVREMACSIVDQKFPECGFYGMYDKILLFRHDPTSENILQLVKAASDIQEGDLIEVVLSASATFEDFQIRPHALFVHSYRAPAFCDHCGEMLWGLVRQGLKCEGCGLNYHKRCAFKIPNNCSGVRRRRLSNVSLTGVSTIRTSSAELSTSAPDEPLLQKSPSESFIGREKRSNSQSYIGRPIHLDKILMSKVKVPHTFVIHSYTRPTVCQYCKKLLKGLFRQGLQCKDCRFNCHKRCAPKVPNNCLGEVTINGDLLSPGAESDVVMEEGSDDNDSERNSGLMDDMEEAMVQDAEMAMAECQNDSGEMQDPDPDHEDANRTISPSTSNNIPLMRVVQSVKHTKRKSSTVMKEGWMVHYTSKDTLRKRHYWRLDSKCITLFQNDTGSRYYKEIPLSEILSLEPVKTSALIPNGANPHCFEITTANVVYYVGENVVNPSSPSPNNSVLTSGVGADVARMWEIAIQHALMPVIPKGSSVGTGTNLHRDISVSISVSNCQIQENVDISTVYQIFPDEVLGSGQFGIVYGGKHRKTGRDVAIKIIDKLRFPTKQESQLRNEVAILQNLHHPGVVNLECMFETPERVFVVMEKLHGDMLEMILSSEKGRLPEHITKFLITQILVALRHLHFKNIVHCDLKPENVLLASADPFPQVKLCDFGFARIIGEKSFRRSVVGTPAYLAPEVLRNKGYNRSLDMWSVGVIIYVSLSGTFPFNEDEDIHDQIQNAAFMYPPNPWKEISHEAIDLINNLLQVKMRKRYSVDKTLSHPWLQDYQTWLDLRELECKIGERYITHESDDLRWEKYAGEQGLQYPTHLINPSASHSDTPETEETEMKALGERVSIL
RGS16-Gao = modulators of RGS16 binding to Galphao, primary screen, biochemical, human proteins, multiplexed bead flow cytometry | Regulator of G-protein signaling 16 (Homo sapiens) + Guanine nucleotide-binding protein … | bead-based flow cytometry RGS16-Galphao binding, fluorescence; actives lie on both sides | binding response (% of control), % at 10 µM | hit rate 0.38% among 220,000 | AID 1441, 2008;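 active means below 25% or above 175%, edge rows of some plates excepted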;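 further: Galphao activated by GDP with aluminum fluoride before binding; 100% = wells without compound and 0% = beads without RGS; some results beyond the cut were filed as inactive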
HSV augment = enhancers of HSV replication in host cells, fold increase, host cell viability | HSV replication augmentation in cells | maximum fold increase | hit rate 0.005% among 220,000;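 active means peak rise of 1.5-fold or more in the series; tested in PC3 cells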;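 further: first round at 10 µM; read as green reporter fluorescence; hits show the peak of a series up to 25 µM; 1 = signal of infected wells without compound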
GALR2 agonist = GALR2 receptor agonists, primary screen, cell-based; Galanin receptor type 2 (Homo sapiens), O43603; GALR2-expressing cells, agonist activation read-out; activation, %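 (tested at 5 µM)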; hit rate 0.48% among 140,000;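 active means above mean plus 3 SD of all compounds, about 5% in these data, not always enough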;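 further: 0% = vehicle buffer wells and 100% = reference agonist at full effect; tested in CHO reporter cells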
Insulin prom inh cell count = second read-out of Insulin prom inh, no call of its own (marks repeat the call); normalized cell count, %; measured here: cell count, toxicity; reference of the scale not given here;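 cells exposed to compound for 48 h; stained nuclei by imaging scaled within each plate; lower means fewer cells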
HSV augment primary fold = second read-out of HSV augment, no call of its own (marks repeat the call); fold increase; compound at 10 µM; measured here: primary screen fold increase 10 uM; tested in PC3 cells;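 GFP signal in the first replicate; 1 = infected wells without compound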
* hit, by the source's call; i = inactive; . = no result given; [ ] = dose if it differs, or a comment.

The opening 11 records, to show the layout:
SMILES | Insulin prom inh | Insulin prom inh cell count | PKD1 inh | RGS16-Gao | HSV augment | HSV augment primary fold | GALR2 agonist
Cc1ccc(-c2nnc(SCC(=O)Nc3ccccc3N3CCOCC3)o2)cc1 | 48 | 168 | 1 | 92 | i | 0.82 | -1.2
COc1ccc(C2C(C(=O)Nc3cc(OC)c(OC)c(OC)c3)c3ccccc3C(=O)N2C)cc1OC (centres undefined) | -20 | 97 | 6 | 104 | i | 1 | .
CSc1nnc(-c2ccncc2)n1CCCN1CCCC1=O | 31 | 133 | -3 | . | i | 1 | -1.5
Cc1nc2cc(C(F)(F)F)ccc2n1C1CCN(CC(=O)NC(C)(C)C)CC1 | 0 | 79 | -9 | 106 | i | 0.91 | -1.0
Cc1ccc(C)c2[nH]c(=O)c(C(c3nnnn3Cc3ccccc3)N3CCc4ccccc4C3)cc12 (centres undefined) | 3 | 67 | 11 | 102 | i | 0.99 | -2.1
O=C(C(=O)N1CCOCC1)c1c[nH]c2ccccc12 | . | . | 5 | 97 | i | 1 | .
Cn1cnnc1SCC(=O)Nc1ccc(OCc2ccccc2)cc1 | 0 | 149 | -5 | 106 | i | 0.92 | .
COc1cccc(C(=O)N2CCOCC2)c1 | 65* | 82* | 6 | 103 | i | 1.1 | .
CCOc1ccc(-n2c(=O)c3c(C)c(C)sc3n(CC(=O)NCc3ccco3)c2=O)cc1 | . | . | -6 | 107 | i | 0.85 | -1.8
Cc1cccc(C(=O)NC(=S)NNC(=O)c2cccs2)c1 | -25 | 78 | -12 | 101 | i | 0.94 | -0.1
CC(C)CC(=O)Nc1ccc2nn(-c3ccccc3)nc2c1 | 17 | 107 | -8 | 102 | . | . | 0.5

All compounds of this part, from the start:
SMILES | Insulin prom inh | Insulin prom inh cell count | PKD1 inh | RGS16-Gao | HSV augment | HSV augment primary fold | GALR2 agonist
Cc1ccc(-c2nnc(SCC(=O)Nc3ccccc3N3CCOCC3)o2)cc1 | 48 | 168 | 1 | 92 | i | 0.82 | -1.2
COc1ccc(C2C(C(=O)Nc3cc(OC)c(OC)c(OC)c3)c3ccccc3C(=O)N2C)cc1OC (centres undefined) | -20 | 97 | 6 | 104 | i | 1 | .
CSc1nnc(-c2ccncc2)n1CCCN1CCCC1=O | 31 | 133 | -3 | . | i | 1 | -1.5
Cc1nc2cc(C(F)(F)F)ccc2n1C1CCN(CC(=O)NC(C)(C)C)CC1 | 0 | 79 | -9 | 106 | i | 0.91 | -1.0
Cc1ccc(C)c2[nH]c(=O)c(C(c3nnnn3Cc3ccccc3)N3CCc4ccccc4C3)cc12 (centres undefined) | 3 | 67 | 11 | 102 | i | 0.99 | -2.1
O=C(C(=O)N1CCOCC1)c1c[nH]c2ccccc12 | . | . | 5 | 97 | i | 1 | .
Cn1cnnc1SCC(=O)Nc1ccc(OCc2ccccc2)cc1 | 0 | 149 | -5 | 106 | i | 0.92 | .
COc1cccc(C(=O)N2CCOCC2)c1 | 65* | 82* | 6 | 103 | i | 1.1 | .
CCOc1ccc(-n2c(=O)c3c(C)c(C)sc3n(CC(=O)NCc3ccco3)c2=O)cc1 | . | . | -6 | 107 | i | 0.85 | -1.8
Cc1cccc(C(=O)NC(=S)NNC(=O)c2cccs2)c1 | -25 | 78 | -12 | 101 | i | 0.94 | -0.1
CC(C)CC(=O)Nc1ccc2nn(-c3ccccc3)nc2c1 | 17 | 107 | -8 | 102 | . | . | 0.5
Cc1ccc2sc(NC(=O)CN3C(=O)CCC3=O)nc2c1C | 30 | 176 | -5 | 106 | i | 1.1 | -1.2
O=C(CN1C(=O)CSc2ncccc21)NCCN1CCOCC1 | . | . | -9 | 108 | i | 0.81 | -0.7
CC1CCCC(C)N1C(=O)CN1CCN(c2nc(-c3ccc(F)cc3)cs2)CC1 (centres undefined) | -7 | 96 | 7 | 94 | i | 1 | -4.3
COC(=O)c1cc(Cl)c(NC(=O)c2ccc(F)cc2)cc1OC | -19 | 124 | -6 | 106 | i | 0.99 | -1.4
CCCc1cc(Nc2ccccc2OCC)n2ncnc2n1 | -34 | 209 | 3 | 98 | i | 0.89 | -0.1
CCc1nnc(NC(=O)Nc2ccc(Cl)cc2)s1 | . | . | -3 | 101 | i | 0.92 | .
Cc1oc(-c2nc3ccccc3n2C)cc1C(=O)c1ccccc1 | 67 | 131 | -8 | 95 | i | 0.86 | -1.7
Cc1n[nH]c(C)c1S(=O)(=O)N1CCc2ccccc21 | . | . | 0 | 105 | i | 1 | 0.5
COc1cc(NC(=O)c2ccc(OC)c([N+](=O)[O-])c2)ccc1NC(=O)c1cccs1 | 43 | 67 | -10 | 49 | i | 0.8 | -0.6
Cn1cnnc1Sc1nc2c(c(=O)n(C)c(=O)n2C)n1C | 43 | 134 | -5 | . | i | 0.91 | -1.9
O=C(CSc1nc2ccccc2o1)Nc1nc(-c2ccccc2)cs1 | . | . | -10 | 93 | i | 1 | -2.7
O=C1C2CCCN2C(c2ccc(Br)cc2)N1c1ccc(F)cc1 (centres undefined) | . | . | -3 | 106 | i | 1.3 | -3.1
Cc1ccc(P(C)(=O)c2ccc(C)cc2)cc1 | -467 | 53 | 1 | 102 | i | 0.98 | -2.6
CCOC(=O)c1cc(C#N)c(Oc2ccc(F)cc2)nc1-c1ccccc1 | -48 | 52 | -5 | 102 | i | 1.1 | -2.0
O=C(Nc1ccc(N2CCOCC2)cc1)C1CC1 | 50 | 111 | -5 | 103 | i | 0.9 | -1.4
O=c1cc(O)c2sc3nc(-c4ccccc4)cc(C(F)(F)F)c3c2[nH]1 | 34 | 96 | 2 | 99 | i | 1.2 | 0.7
S=C(NCC1CCCO1)Nc1ccccc1Cl (centres undefined) | -27 | 151 | 6 | 105 | i | 0.84 | 0.6
CC1(C)Oc2ccc3ccc(=O)oc3c2-c2cn[nH]c21 | -45 | 106 | 90* | 98 | i | 0.94 | -1.9
CC(=O)Nc1ccc2nc(-c3ccccc3)cn2c1 | -371 | 77 | -4 | 81 | i | 1 | -0.8
CC1CCN(CC(C)CNC(=O)c2cc(-c3ccccn3)nc3ccccc23)CC1 (centres undefined) | 3 | 127 | -24 | 96 | i | 0.61 | -0.2
CCc1nnc(NS(=O)(=O)c2ccc(N=Cc3c(C)[nH]n(-c4cccc(Cl)c4)c3=O)cc2)s1 | 18 | 109 | -5 | 88 | i | 0.97 | -0.7
O=S(=O)(NCc1ccccc1)c1cccc2nonc12 | 69 | 135 | -5 | 107 | i | 1.1 | -0.7
COc1cc(OC)cc(C(=O)NCc2n[nH]c(=S)n2-c2ccccc2OC)c1 | -53 | 76 | -4 | 100 | i | 0.82 | -1.8
CCCC(N)CCCCCC(=O)O (centres undefined) | . | . | -1 | 333*[activator] | i | 0.89 | -0.3
Cc1ccc(-c2nnn(CC(=O)N(CC(=O)NCc3ccccc3)c3cccc(C)c3C)n2)o1 | 21 | 166 | 9 | 84 | i | 0.9 | -1.6
CCOC(=O)c1oc2ccccc2c1CSc1nnnn1-c1ccc(OC)cc1 | 14 | 186 | -7 | 97 | i | 0.85 | -1.1
CCCc1c(NC(=O)Nc2ccc(Cl)cc2Cl)cnn1-c1ccccc1 | . | . | . | 95 | i | 1 | .
O=C(COc1ccc(Cl)cc1)Nc1ccc(C(=O)NCc2cccnc2)cc1 | -17 | 113 | -4 | 87 | i | 0.54 | -2.1
Fc1ccc(/C=N/Nc2ccccn2)cc1 | 35 | 159 | -9 | 85 | i | 1 | -1.9
Cc1ccc(NC(=O)c2ccc(-n3cccn3)nc2)cc1 | -26 | 114 | 0 | 104 | i | 0.97 | .
Nc1c(S(=O)(=O)c2cccs2)c2nc3ccccc3nc2n1CCc1ccccc1 | -2 | 127 | 6 | 99 | . | . | 1.9
O=C(Nc1ccccc1)C1=C[C@@H](c2csc3ccccc23)C[C@@H](OCc2ccc(CO)cc2)O1 | . | . | 5 | 98 | i | 0.77 | .
Cc1ccc(-c2nc3ccccn3c2C=O)cc1 | . | . | -3 | 112 | i | 0.97 | .
COc1ccc(C(=O)n2nc(-c3ccc(OC)cc3)nc2N)cc1 | -19 | 114 | -4 | 106 | i | 1 | -1.2
CC(NC(=O)c1ccco1)C(=O)OCC(=O)c1ccc(Cl)s1 (centres undefined) | . | . | 0 | 98 | i | 1.1 | .
Cc1nn(-c2cc(C(F)(F)F)ccc2Cl)c2nc(C(F)(F)F)[nH]c(=O)c12 | 9 | 55 | -1 | 100 | i | 0.97 | 0.0
Cc1ccccc1CSCc1nc(N)nc(Nc2ccccc2C)n1 | . | . | 2 | 100 | i | 0.95 | .
CC(C)(C)c1ccc(C(=O)NCc2cccnc2)cc1 | . | . | -4 | 103 | i | 0.94 | -3.7
COc1cccc(/C=C/C(=O)c2c(O)cc(C)oc2=O)c1O | -26 | 139 | 0 | 95 | i | 0.9 | 0.5

Next entries follow:
SMILES | Insulin prom inh | Insulin prom inh cell count | PKD1 inh | RGS16-Gao | HSV augment | HSV augment primary fold | GALR2 agonist
O=C(CCCCCn1c(=S)[nH]c2ccc(N3CCOCC3)cc2c1=O)NCc1ccccc1 | 27 | 107 | 9 | 100 | i | 1.1 | -1.1
Cc1sc2nc(SCc3nc4ccccc4[nH]3)n(Cc3ccco3)c(=O)c2c1C | 50 | 9 | -1 | 99 | . | . | -2.1
O=C(/C=C/NNC(=O)c1ccccc1)c1ccc([N+](=O)[O-])cc1 | 60 | 105 | -6 | 103 | i | 0.97 | .
O=C(CSc1ccccn1)N/N=C/c1cc([N+](=O)[O-])ccc1O | . | . | . | 101 | i | 1.1 | .
Cc1ccccc1NC(=O)c1nc2nccc(C)n2n1 | -27 | 158 | -7 | 107 | i | 0.93 | .
O=C(Cn1nc(Cc2ccncc2)c2ccccc2c1=O)Nc1cccnc1Cl | . | . | . | 96 | i | 0.76 | .
CC1=NNC(=O)C1CCC(=O)N/N=C/c1ccc(Cl)cc1Cl (centres undefined) | . | . | . | 101 | i | 0.85 | .
COc1ccc(NS(=O)(=O)c2coc(C(N)=O)c2)cc1Cl | . | . | -3 | 103 | i | 1 | 0.0
COc1cc(NC(=S)N2CCN(C)CC2)c(OC)cc1Cl | . | . | -2 | 96 | i | 1 | .
Cc1nc2ncnn2c(C)c1CCC(=O)N1CC(C)CC(C)C1 (centres undefined) | -26 | 80 | -7 | -27 | i | 1.1 | -2.4
Cc1ccc(/C=C/C(=O)N2CC(=O)Nc3ccccc32)o1 | . | . | -4 | 97 | i | 1.1 | .
Cc1ccsc1C(=O)Nc1ccc(F)c([N+](=O)[O-])c1 | 20 | 150 | 6 | 100 | i | 0.94 | 1.2
Cn1nc(C(F)(F)F)cc1-c1ccc(/C=C(\C#N)C(=O)c2ccccc2)s1 | . | . | . | 92 | i | 1 | .
CCn1c(COc2ccc(=O)n(-c3ccccc3)n2)nnc1SC | -118 | 61 | -9 | 111 | i | 1.1 | .
Cc1ccc(-c2nc(CS(=O)(=O)CC(=O)NCCCN3CCN(C)CC3)c(C)o2)cc1 | . | . | -9 | 102 | i | 0.8 | -2.0
Cc1ccc(CNC(=O)CNS(=O)(=O)c2ccc3nc(C)sc3c2)cc1 | . | . | -8 | 90 | i | 0.97 | .
O=C(Nc1ccc(S(=O)(=O)N2CCCC2)cc1)c1cc(=O)c2ccccc2o1 | . | . | . | 104 | i | 0.89 | .
CCOC(=O)C(=CNc1cc(C)nn1-c1ccccc1)C(=O)OCC | 34 | 48 | -6 | 103 | i | 1.2 | -0.7
CC(=O)N1C(C(=O)O)CSC1c1cccc(C)c1 (centres undefined) | 10 | 100 | -3 | 96 | i | 0.97 | -1.4
CCCCN1C(=O)C(NC(C)=O)c2cc(Br)ccc21 (centres undefined) | -43 | 80 | -6 | 173 | i | 0.87 | -0.5
CCOc1ccc(CCNC(=O)C2CCC(=O)N2CCc2ccccc2)cc1OCC (centres undefined) | -3 | 61 | 1 | 98 | i | 0.87 | -1.0
COCCOC(=O)C1=C(C)NC(=O)NC1c1ccc(OC(=O)c2ccco2)c(OC)c1 (centres undefined) | . | . | -3 | 100 | i | 0.98 | -1.2
Cc1nn(C)cc1/C=C/C(=O)c1cccs1 | -306 | 62 | -2 | 102 | i | 0.84 | -1.2
O=C(COC(=O)Cc1ccccc1F)Nc1ccc2c(c1)OCCO2 | -33 | 103 | 3 | 105 | i | 1 | 0.1
O=C(COc1cccc(Cl)c1Cl)Nc1ccc2c(c1)CCC2 | . | . | 1 | 98 | i | 0.87 | -0.6
CCOC(=O)NNc1ccc(C(F)(F)F)cn1 | . | . | . | 105 | i | 1 | .
COc1ccc(C2C(C#N)=C(N)Oc3c2ccc2cccnc32)cc1OC (centres undefined) | -190 | 14 | -1 | 99 | i | 0.79 | .
